# Assay outcomes (PubChem BioAssay)
# ALR inh: inhibitors of human ALR sulfhydryl oxidase, primary screen, biochemical, H2O2 detection, HRP-luminol luminescence, single point; inhibition, % (test concentration not listed); 290,000 tested, 3.8% active; purified ALR, DTT oxidation; AID 485317, 2010;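 active = mean and each replicate at 75% or more; inconclusive = only one of the two met; inactive = neither met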;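 note: stock transfer was 7.5 nL into about 7.5 µL; 0% = neutral wells and 100% = wells with inactivated enzyme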
# Target sequence (P55789 whole entry, looked up): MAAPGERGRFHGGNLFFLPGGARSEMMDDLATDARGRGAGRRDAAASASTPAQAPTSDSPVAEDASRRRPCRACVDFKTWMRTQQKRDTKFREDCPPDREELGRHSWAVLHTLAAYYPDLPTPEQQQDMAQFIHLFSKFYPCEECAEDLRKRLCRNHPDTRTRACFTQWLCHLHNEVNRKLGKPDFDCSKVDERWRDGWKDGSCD
# rRNA inh HTS: reduced GFP signal of wild-type E. coli, primary screen, bacterial rRNA inhibitor project, GFP/RFP fluorescence, OD600, single point | E. coli WT GFP vs humanized-ribosome RFP mutants, 24 h; active compounds read low; DMSO median 0, no signal -100 | GFP signal change (wild-type ribosome), % (no concentration beside the values) | 350,000 tested, 1.6% active;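 active = significant combined selectivity score with lowered wild-type GFP, culture density cut under 30%, mutant RFP and density less affected; inactive = any of these conditions unmet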; note: one replicate is shown; some compounds called inactive have numbers as strong as hits
# B2AR ag: beta2AR agonists driving receptor internalization, primary screen, cell-based, FAP fluorogen, flow cytometry. Beta-2 adrenergic receptor (Homo sapiens), P07550. Am2.2-beta2AR cells; reference of the scale not given here. response, % (no concentration beside the values). 340,000 tested, 0.43% active. AID 504454, 2011;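 active = response above a set limit, near 3 SD of response in nonfluorescent compounds, cut at about 42% in these data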;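 note: stock transfer was 100 nL into about 11 µL; a reference agonist was the positive control; negative values mostly stem from fluorescent compounds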
# Target sequence (P07550 whole entry, looked up): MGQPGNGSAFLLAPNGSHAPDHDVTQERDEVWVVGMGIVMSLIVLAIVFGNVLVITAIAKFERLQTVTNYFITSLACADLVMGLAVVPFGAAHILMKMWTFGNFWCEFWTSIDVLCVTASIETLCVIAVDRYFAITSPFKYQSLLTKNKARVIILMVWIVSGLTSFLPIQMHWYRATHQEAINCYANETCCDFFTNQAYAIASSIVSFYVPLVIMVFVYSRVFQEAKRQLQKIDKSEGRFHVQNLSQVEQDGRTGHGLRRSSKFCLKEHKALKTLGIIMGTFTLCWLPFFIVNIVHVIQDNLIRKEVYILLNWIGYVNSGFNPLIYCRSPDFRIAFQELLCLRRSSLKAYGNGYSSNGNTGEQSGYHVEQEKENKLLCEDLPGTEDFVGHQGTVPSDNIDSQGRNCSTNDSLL
# T cruzi repl: inhibitors of intracellular T. cruzi growth, primary screen, luminescence, NIH3T3 host cells. AID 1885, 2009. T. cruzi beta-gal in NIH3T3, 90 h. inhibition, % (concentration not given with the values). 300,000 tested, 1.4% active;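 active = mean inhibition across valid replicates above about 55%, limit read from the data; inconclusive = mean below that limit but half or more replicates reach it; inactive = mean below it, under half of replicates reach it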;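 note: signal also drops with host cell toxicity which is not excluded here; 0% = plate median of DMSO wells and 100% = zero luminescence signal; higher percent means less beta-gal luminescence so fewer parasites; stock transfer was 50 nL into about 50 µL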
# A1 inh: caspase 3/7 activation in MEF A1-2A-BIM cells, primary screen, A1 inhibitor project, cell-based, luminescence, HTS | Caspase-Glo 3/7 luminescence, 3 h; percent of clofoctol response, vehicle zero | caspase activation, % (test concentration not listed) | 330,000 tested, 0.066% active;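 active = over half of replicate activation scores above 10%, or exactly half above 10 with the replicate mean above 10; inconclusive = replicate mean below 10 yet half the replicates above 10; inactive = over half of replicates below 10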;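 note: wells of about 30 µL received 50 nL stock; many hits fall short of the cut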
# Calb FLC: C. albicans growth inhibition with fluconazole, primary screen, CaCi-2 strain, Alamar Blue fluorescence | C. albicans CaCi-2 (fluconazole-resistant clinical isolate) + fluconazole, 48 h | growth inhibition, % (test concentration not listed) | 300,000 tested, 0.57% active | AID 1979, 2009;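 active = most replicates above 75%; inconclusive = exactly half above 75%; inactive = most below 75%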;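 note: all wells also contain fluconazole at 8 µg/ml as a sub-toxic cotreatment; 0% = median of DMSO wells and 100% = median of geldanamycin control wells; wells of about 8 µL received 7.5 nL stock; the first replicate is given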
# Beta apoptosis: inhibitors of cytokine-induced beta cell apoptosis, primary screen, luminescence; INS-1E cytokine-induced death, ATP luminescence, 48 h; percent of positive-control rescue, neutral wells zero; protection from apoptosis, % (no concentration beside the values); 300,000 tested, 0.8% active; AID 435005, 2010;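 active = all replicates at 75% or more, or half of them and the mean; inconclusive = half reach 75% but not the mean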;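 note: 0% = cytokine-treated negative control wells and 100% = positive control rescue; higher means more ATP so stronger rescue from cytokine killing; wells of about 40 µL received 100 nL stock; the first replicate is given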
# LANA-H2B inh: blockers of LANA interaction with H2A/H2B – biochemical, FP readout, HTS, primary screen. Protein LANA1 (Human herpesvirus 8 type P (isolate GK18)), Q9QR71. cell-free LANA-H2A/H2B peptide, fluorescence polarization. inhibition, % (concentration not given with the values). 320,000 tested, 0.6% active. AID 2629, 2010; in the data active = inhibition mostly above about 10%, no sharp cut-off; inactive = mostly below about 6.7%;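 note: stock transfer was 7.5 nL into about 10 µL; 0% = median of vehicle wells and 100% = median of positive control wells; one replicate is shown; the record names a cut of 25% in any replicate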
# rRNA inh HTS OD600: also measured in rRNA inh HTS; calls as there; OD600 change, %; measured here: OD600 growth;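 optical density of the mix in the first replicate; 0 = DMSO median and -100 = no signal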
# rRNA inh HTS RFP: recorded beside rRNA inh HTS, whose call it bears; RFP signal change, %; measured here: RFP humanized mutant strains;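 first replicate; 0 = DMSO median and -100 = no signal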
# Starred values were filed as active, the others as inactive; ? = inconclusive; · = not tested or not shown. The list is partial; rates above refer to the full screens.
SMILES,ALR inh,rRNA inh HTS,rRNA inh HTS OD600,rRNA inh HTS RFP,B2AR ag,T cruzi repl,A1 inh,Calb FLC,Beta apoptosis,LANA-H2B inh
O=C(c1ccccc1)N1CCN(C(=O)N2CCOCC2)CC1,-9,·,·,·,2,-8,0.8,0,0,-2.7
CCOc1ccc(S(=O)(=O)N2CCCC(C(=O)N3CCOCC3)C2)cc1Cl (configuration not stated),-5,1,0,1.9,-15,13,0.0,-5,-1,5.3
O=C(N/N=C/c1cccc([N+](=O)[O-])c1)c1cc2c(ccc3ccccc32)o1,-12,-8,11,3.7,20,-18,-0.4,2,42,0.9
COc1ccc(-n2cc(-c3ccccc3)c3c(N4CCN(CCO)CC4)ncnc32)cc1,-9,-58,-79,-33,9,32,-0.7,37,2,-3.8
CCOc1ccccc1OCC(=O)NC1CCCCC1,·,·,·,·,-2,-8,0.2,-20,-7,-0.7
Cc1cc(C)nc(N2CCC(C(=O)NC3CC3)CC2)n1,-3,5,13,-1.3,-1,-5,1.0,-22,5,2.5
CCOc1nc(-c2ccccc2)ccc1-c1noc(-c2ccco2)n1,-3,·,·,·,-4,14,0.1,6,5,0.4
Oc1c(Cl)cc(Cl)cc1CNc1ccccn1,·,-51,-73,-18,-2,3,·,4,·,·
CSCCC(NC(=O)c1ccccc1)C(=O)N(C)CC(=O)Nc1ccc(N2CCOCC2)cc1 (configuration not stated),70,2,6,-0.2,1,6,0.1,-3,-3,3.2
COc1cc(CCC(=O)OCn2nnc3ccccc3c2=O)cc(OC)c1OC,-6,·,·,·,-3,-12,0.5,8,4,0.5
COc1ccc(C)cc1N(CC(=O)N1CCCC1)S(C)(=O)=O,-11,17,2,2.1,3,2,-1.0,-2,-1,-0.1
Cc1ccc(S(=O)(=O)NC(=O)Nc2cc(C)no2)cc1,-10,0,6,0.9,-6,-5,0.0,-2,-20,1.1
COc1cc(C2C(Oc3ccccc3C)C(=O)N2Cc2ccc(F)cc2)cc(OC)c1OC (configuration not stated),-5,6,2,-1.5,-4,23,0.5,4,-6,1.2
C=CCSc1n[nH]c(-c2ccc(OCCC)cc2)n1,47,-32,-42,-13,6,3,-0.3,112*,1,-5.4
CCCn1nnc(NC(=O)c2ccccc2Cl)n1,-7,16,4,2.3,-9,-18,0.8,-5,2,-3.6
COc1ccccc1N(CC(=O)Nc1ccccc1C(=O)NCC(C)C)S(C)(=O)=O,-8,4,-8,-0.1,-11,-4,0.2,-11,0,-8.1
O=C1CCC(C(=O)N2CCCCCC2)CN1Cc1cccc(C(F)(F)F)c1 (configuration not stated),-9,0,1,-1.7,-6,2,1.1,-4,-4,-4.3
Cc1ccc(C2NC(c3ccc(C)cc3)C([N+](=O)[O-])C(C)(C)C2[N+](=O)[O-])cc1 (configuration not stated),-8,4,-5,-1.3,7,43,-0.7,13,3,-10
CCC(=O)Nc1ccc(NC(=O)CSc2nnnn2C(C)C)cc1,-9,·,·,·,-1,6,-1.2,19,0,6.0
CCNc1nc(SC(C)C(=O)OC)nc(N(C)C)n1 (configuration not stated),9,14,-1,-0.4,14,4,0.1,22,-8,1.7
Nc1ncc(Br)cc1S(=O)(=O)Nc1cc(C(F)(F)F)cc(C(F)(F)F)c1,6,-49,-76,-20,12,-36,-0.3,?,15,4.2
COc1ccc(C(=O)n2nc(C#N)c(C#N)c2N)cc1,-12,6,1,-0.9,-2,-14,1.5,-2,-8,-2.9
O=C(NCC1CCCO1)C(c1cccs1)N(Cc1ccccc1Cl)C(=O)c1ccc(-c2ccccc2)[nH]1 (configuration not stated),-9,·,·,·,32,74*,0.2,4,·,2.0
COc1ccc(Nc2n[nH]c(N)c2C(N)=O)cc1,99*,7,5,-2.5,-2,-4,0.3,6,1,-1.2
Clc1cccc(CN2CCCCCC2)c1Cl,1,1,7,-1.5,0,-17,0.8,-1,-8,-6.0

# (continued)
SMILES,ALR inh,rRNA inh HTS,rRNA inh HTS OD600,rRNA inh HTS RFP,B2AR ag,T cruzi repl,A1 inh,Calb FLC,Beta apoptosis,LANA-H2B inh
Cc1nc2nc(SCC(=O)c3ccccc3)[nH]c2cc1Br,-4,9,2,0.2,3,9,-0.4,8,0,-4.5
COc1cc(C(=O)NC(C)c2cc(C)ccc2C)ccc1OCC(=O)N1CCOCC1 (configuration not stated),·,5,7,-0.8,-4,·,0.7,·,-5,2.3
COc1ccc(C(=O)N(C)CC(=O)Nc2cccc(F)c2)cc1S(=O)(=O)NC1CCCC1,-6,3,3,0.3,3,-10,0.3,-3,-11,1.2
CCOC(=O)/C(C#N)=C\c1ccc(CC)s1,0,·,·,·,-2,0,-5.2,-2,-5,-5.0
COc1ccc(N2C(=O)C(CC(=O)Nc3ccccc3)N(Cc3ccc4c(c3)OCO4)C2=O)cc1 (configuration not stated),-2,-4,7,4.8,2,25,0.9,11,-4,-5.9
O=C1CC(O)(C(F)(F)F)Oc2c1ccc1ccccc21 (configuration not stated),-13,-56,-72,-18,5,-48,-3.4,16,-5,-4.0
CCOc1ccc(Br)cc1S(=O)(=O)Nc1cccc(S(=O)(=O)NC2=NCCC2)c1,-1,2,-3,-0.1,3,5,0.2,-9,-10,10
Cn1c(NCc2ccccc2O)nc2ccccc21,59,·,·,·,0,-6,1.4,1,-7,2.9
Cc1ccnc(NC(c2ccncc2)c2c(C)[nH]c3ccccc23)c1 (configuration not stated),9,·,·,·,-5,0,-0.5,3,-7,-7.4
O=C(CCC1CCCC1)N=C1SC2CS(=O)(=O)CC2N1Cc1ccccc1 (configuration not stated),-2,4,4,-3.1,-12,-11,0.2,-13,12,6.7
COc1ccc(C(=O)N2CC3(C)CC2CC(C)(C)C3)cc1 (configuration not stated),-23,·,·,·,0,-4,0.7,-1,0,2.0
Nc1cc(=O)[nH]n1C1CCCCC1,16,13,18,-0.7,-2,-3,0.4,-21,3,-3.3
CCOC(=O)CN1C(=O)Nc2ccc(Br)cc2C1c1ccccc1 (configuration not stated),·,·,·,·,3,-8,-1.2,16,-4,0.8
CCN(CC)S(=O)(=O)c1cc(OC)c(Cl)cc1Cl,-10,-32,-36,-9.4,5,22,1.2,-1,0,-0.8
CCCCOC(=O)Nc1ccc(C(=O)OCCC)cc1,3,·,·,·,3,0,-0.4,-17,-1,5.6
Cc1ccc(NC(=O)CSc2nnc(NC(=O)CN3CCOCC3)s2)cc1,1,·,·,·,7,6,1.1,10,-5,1.9
O=C(CCC1CCCCC1)NCCN1CCOCC1,-1,3,13,-0.4,0,-1,-0.1,-6,-10,0.9
CCOC(=O)c1cc2cc3ccccc3cc2[nH]1,-35,·,·,·,13,-4,-2.7,-30,23,2.8
CCOc1ccc(C(=O)NNC(=O)CCNC(=O)c2ccc(Br)cc2)cc1OC,0,12,12,0.3,1,·,0.1,·,-4,0.3
CCN1CCN(C(=O)CS(=O)(=O)Cc2nc(-c3ccc(C)cc3)oc2C)CC1,28,·,·,·,0,-17,·,-3,1,-0.4
CCCCn1nnnc1SCC(=O)Nc1ccc(N(C)C)cc1,99*,·,·,·,8,-4,0.1,-25,1,4.5
CCOc1ncccc1C(=O)Nc1ccc(-c2cn3ccsc3n2)cc1,-8,·,·,·,-8,10,-0.2,8,6,2.2
COC(=O)c1c(NC(=O)c2ccoc2C)sc(C)c1C,-7,14,13,2.1,-1,-6,-0.3,-2,-8,5.1
O=C(CCCOc1ccccc1)n1nnc2ccccc21,-5,·,·,·,-7,10,0.7,0,·,3.6
C#CC(CC)(CC)NC(=O)c1c(C)noc1C,-8,·,·,·,4,-1,0.8,-2,4,-1.3

# The results go on:
SMILES,ALR inh,rRNA inh HTS,rRNA inh HTS OD600,rRNA inh HTS RFP,B2AR ag,T cruzi repl,A1 inh,Calb FLC,Beta apoptosis,LANA-H2B inh
C=C(C)c1cccc(C(C)(C)NC(=O)N2CCN(CC)CC2)c1,1,·,·,·,2,7,-0.3,-3,0,-0.9
CCOc1ccc(C(=O)NC(=S)Nc2ccc(N3CCOCC3)c(Cl)c2)cc1[N+](=O)[O-],3,-17,-11,10,1,8,-0.1,-3,-3,-0.5
CC[n+]1c(/C=C(\C)Nc2ccccc2)sc2ccccc21,89*,·,·,·,10,·,0.0,·,6,6.7
COc1ccc(CN2C(=O)Cc3c2nc(N)c2c(N)nc(N4CCCCC4)c(C#N)c32)cc1,-2,·,·,·,·,20,1.2,-5,-1,-1.9
COc1cc(-c2noc(C)c2C(=O)NCCc2cccs2)cc(OC)c1OC,-2,9,2,0.9,5,·,0.6,·,5,2.6
COc1ccccc1/C=C(\NC(=O)c1ccccc1)C(=O)NCc1ccco1,1,-1,1,0.4,1,-1,-0.2,1,2,-2.3
COc1ccccc1CNC(=O)CCc1cn(C)c2ccccc12,-2,-10,-6,2.1,-4,-11,0.3,-1,-4,4.6
COc1ccc(NC(=O)CN2CCN(CC(=O)Nc3ccc(OC)c(OC)c3)CC2)cc1,-15,·,·,·,-2,·,0.9,·,-2,-0.1
CCOc1ccc(CN(C)CC(=O)NNC(=O)c2ccc(Cl)cc2)cc1OC,-18,-3,2,-0.2,-4,-33,-0.6,5,-3,-4.0
Cc1cccc(C(=O)NCC(=O)OCC(=O)N2CCc3ccccc32)c1,0,2,-2,5.5,9,-10,0.2,6,-6,1.0
Cc1ccc(OCC(=O)Nc2ccc(CN3CCOCC3)cc2)cc1,0,1,14,0.7,0,-10,1.0,2,5,0.5
CC(CN1CCOCC1)OC(=O)C1COc2ccccc2O1 (configuration not stated),·,5,8,-1.5,0,-6,0.0,-6,-7,·
Cc1ccc(C(=O)OCC(=O)Nc2sccc2C(N)=O)cc1NC(=O)c1ccco1,2,·,·,·,7,0,-0.2,1,-8,-2.5
CC(/C=N/NC(=O)c1cccnc1)=C\c1ccco1,-4,11,2,1.5,6,-3,1.1,21,-7,2.3
COc1ccc(N/N=C(\C#N)C(=N)N2CCCCC2)cc1,99*,6,11,-1.7,-1,20,-0.5,-1,-3,-1.3
CCc1ccccc1NS(=O)(=O)c1c(C(=O)N2CCCCCC2)c(C)n(C)c1C,-3,-14,-12,2.4,-2,-6,0.1,1,-2,2.2
COc1ccc(N=N/C(=C\O)C(=O)c2cccs2)cc1,2,13,8,1.3,26,1,-1.0,33,·,-0.5
Cc1ccc(C(=O)N2CCCN(c3nc4cc5c(cc4cc3C#N)OCO5)CC2)cc1,-5,-35,-54,-6.2,7,3,-1.4,-4,-1,-2.9
COc1ccc(C(=O)C2CCCN(S(=O)(=O)N(C)C)C2)c(C)c1 (configuration not stated),·,-7,-5,-7.5,4,-6,2.0,-8,0,-3.5
